Source: PubChem BioAssay (National Center for Advancing Translational Sciences (NCATS))
HSD17B inhib: inhibitors of human HSD17B10 dehydrogenase; Potency, µM (titrated, usually from 57.1 µM), without a hit: top-dose activity change, negative = inhibition, actives largely listed as inhibitors; Q99714; recombinant HSD17B10, NADH fluorescence kinetic; many of its hits are not listed in these tables; hit rate 7.6% among 75,000; active = well fitted inhibition curve with a large enough effect; inconclusive = small, poorly fitted or top-dose-only effect; inactive = no such curve, though single readings can be large or run the other way;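 also: the protocol describes HADH2 (HSD17B10) and not the HSD17B4 of the title; nearly all actives have a fitted effect of over 70% in size; most hits overshoot -100% by far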
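Activity followed as NADH fluorescence increase (ex 360, em 450 nm) every 30 seconds for 4 min, using final 90 uM beta-hydroxybutyryl CoA and 1 mM NAD+. Recombinant His-tagged enzyme, 20 nM, pH 9.0 Tris buffer, 15 min compound preincubation.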
An asterisk follows results filed as active; ? = inconclusive; & = joins results of further samples; [ ] = dose if it differs, or a comment. % is scaled to controls: 0 for no effect and ±100 for the full control effect; potency is read from the fitted curve at half-maximal effect. A portion of the library; the hit share may differ from the screen's.

SMILES	HSD17B inhib
COc1ccc(OC)c(NC(=O)c2ccc(NC(C)=O)cc2)c1	4%
O=C(Nc1nc2nc(-c3ccccc3)cc(-c3ccccc3)n2n1)c1ccco1	32µM*
C/C=C/COc1nc2c(c(=O)n(C)c(=O)n2C)n1C	11%
O=C(NC1=NCCS1)c1cccc(NC(=O)c2ccco2)c1	4%
COc1ccc(OC)c(S(=O)(=O)Nc2c(F)cccc2F)c1	-11%
COCCN(CCOC)Cc1c(C)[nH]c2c(C)c(C)ccc2c1=O	3%
CCN(CC)S(=O)(=O)c1cccc(-c2nnc(SCCCC(=O)c3ccc(F)cc3)o2)c1	-3%
CCOC(=O)CSc1nnc(CCc2nc3ccccc3[nH]2)n1C	4%
CCC(c1nnnn1Cc1ccco1)N(Cc1ccccc1OC)Cc1cc2cc(C)ccc2[nH]c1=O (stereo not drawn)	-22%
CN(C)c1ccc(C(=O)N2CC(=O)N(CCc3ccccc3)C(=O)C2)cc1	0%
CCSc1nnc(-c2ccc(S(=O)(=O)NCc3cccs3)cc2)o1	-6%
CCC(C)(C)n1nnnc1C(c1ccc(OC)c(OC)c1)N1CCN(c2ccc(OC)cc2)CC1 (stereo not drawn)	-2%
CC(C)OC(=O)CC12CN3CC(CC(=O)OC(C)C)(CN(C1)C(=O)c1ccccc1C3=O)C2=O	3%
CCc1[nH]nc2c1C1(CCOC1C)C(C#N)=C(N)O2 (stereo not drawn)	8%
C/C(=C1\SC(N2CCOCC2)=NC1=O)c1ccc(C)cc1	-4%
O=C(c1cccc(F)c1)N1CCC2(CC1)CN(Cc1ccccc1)C2	-1%
CCOC(=O)c1c(NC(=O)Cc2cccs2)sc(C(=O)N2CCCCC2)c1C	11%
COCC(=O)N1CCC[C@@]2(CCN(c3ccncc3)C2)C1	5%
COc1ccc(CCNc2nc(=O)[nH]nc2C)cc1OC	5%
FC(F)(F)C(Cl)Br (stereo not drawn)	5%
Cc1cc(N2CCCC2)ccc1/C=N/n1cnnc1	?
CC(C)n1c(Sc2nccn2C)nc2c1c(=O)n(C)c(=O)n2C	0%
O=C(O)c1cc(CN2CCOCC2)oc1-c1ccccc1	-9%
Nc1ccn([C@H]2CC[C@@H](CO)O2)c(=O)n1	19%
COc1ccc(C(=O)O)cc1S(=O)(=O)Nc1cccc(C(F)(F)F)c1	-2%
COCC(=O)Nc1c(I)c(C(=O)NC[C@@H](O)CO)c(I)c(C(=O)N(C)C[C@@H](O)CO)c1I	-12%[25.6 µM]
COC(=O)c1ccc(COc2nc(C)cc(C)c2C#N)o1	4%
O=C(CSc1nnc(-c2cccnc2)o1)OC1CCCCC1	9%
O=C(NCc1ccco1)c1scc2c1OCCO2	-9%
N#Cc1nc(COc2ccccc2)oc1N1CCN(c2cccc(Cl)c2)CC1	-26%
O=c1[nH]c(-c2ccccc2)c(-c2ccccc2)[nH]1	32µM*
O=C(Nc1scc(-c2ccccc2)c1C(=O)O)c1ccco1	?
CO[C@@H]1COC(=O)[C@@H](CCSC)NC(=O)C/C=C\[C@@H](C)COC(=O)[C@H](C)NC(=O)C/C=C\[C@H]1C	1%[11.4 µM]
CCOC(=O)c1c(C)[nH]c(C(C)=O)c1C	0%
CCOCCSc1nnc2nc(C)cc(C)n12	-9%
CCOc1ccc(NC(=O)Nc2ccc3c(c2)nnn3C)cc1	?
CCOC(=O)c1oc2ccccc2c1NC(=O)c1ccccc1OC	?
CC(C)(C)NC(=O)C1CC(=O)OC1(C)C (stereo not drawn)	8%
Cc1ccc(S(=O)(=O)N(CC(O)CN2CCCCC2)c2ccccc2)cc1 (stereo not drawn)	6%
O=C(OCCCCN1C(=O)c2ccccc2C1=O)c1ccc(S(=O)(=O)N2CCCC2)cc1	13%

Filtered by structure: those above containing two or more sulfur atoms
SMILES	HSD17B inhib
CCN(CC)S(=O)(=O)c1cccc(-c2nnc(SCCCC(=O)c3ccc(F)cc3)o2)c1	-3%
CCSc1nnc(-c2ccc(S(=O)(=O)NCc3cccs3)cc2)o1	-6%
CCOC(=O)c1c(NC(=O)Cc2cccs2)sc(C(=O)N2CCCCC2)c1C	11%

Remaining list, next part:
SMILES	HSD17B inhib
Nc1nc2c([nH]c(=O)n2C2OC(CO)C(O)C2O)c(=O)[nH]1 (stereo not drawn)	-7%
CCn1c(SCCC(=O)Nc2ccccc2)nnc1-c1ccc(OC)cc1	11%
CC(=O)N1CCc2cc(S(=O)(=O)NCCC(=O)Nc3cccc(C)c3C)ccc21	-2%
CCOc1ccc2[nH]c(C)c(CN(C)C)c(=O)c2c1	32µM*
NC(=O)C1(N2CCCCC2)CCN(C(=O)CSc2nc3ccccc3[nH]2)CC1	-1%
O=C(NCC1CCCO1)c1ccc(CS(=O)(=O)c2ccc(Br)cc2)o1 (stereo not drawn)	7%
C=CCn1c(COc2ccccc2)nnc1SCc1ccc(C#N)cc1	-6%
Cc1ccc(C)c(CN2CCNC2=O)c1	3%
O=C(c1csnn1)N1CCC2(CCCN(c3ccc(-c4ccccc4)cc3)C2)CC1	-7%
Cc1nc2scc(-c3ccccc3)c2c(=O)n1N	-1%
Cn1ccnc1SCC(=O)Nc1ccc(Oc2ccccc2)cc1	-5%
CC1CCN(Cc2nc(-c3ccccc3)no2)CC1	-5%
CCOC(=O)c1ccccc1NC(=O)Cn1cnc2c(cnn2C(C)(C)C)c1=O	1%
O=S(=O)(NCC1CC1)c1cccc(S(=O)(=O)N2CCCC2)c1	6%
CC(N)C12CC3CC(C1)CC(C(C)N)(C3)C2 (stereo not drawn)	10%
COc1cccc(CNC(=O)C2CCN(S(=O)(=O)c3cccc4cccnc34)CC2)c1	2%
Cc1cc(NC(=O)CSc2nc3c(c(=O)n(C)c(=O)n3C)n2C(C)C)no1	-2%
Cc1ccc(NC(=O)Cc2nn(C)c(=O)c3ccccc23)cc1F	5%
Cc1ccnc(NS(=O)(=O)c2ccc(NS(=O)(=O)Cc3ccccc3)cc2)n1	0%
CCc1ccc(NC2=CC(=O)CC(c3ccco3)C2)cc1 (stereo not drawn)	5%

Quoted at random: two entries already listed, in no set order.
SMILES	HSD17B inhib
CCOC(=O)c1oc2ccccc2c1NC(=O)c1ccccc1OC	?
COCCN(CCOC)Cc1c(C)[nH]c2c(C)c(C)ccc2c1=O	3%

Remaining list, next part
SMILES	HSD17B inhib
CN(C)CCCN1c2ccc3ccccc3c2Sc2cccc(Cl)c21	2%[11.4 µM]
COc1ccc(C(=O)c2cn[nH]c2-c2cc(Cl)ccc2O)cc1	-1%
COc1ccccc1Nc1nc(N)nc(-c2cc3ccccc3o2)n1	?
CCCOC(=O)C1=C(C)NC2=C(C(=O)CCC2)C1c1cccc(OC)c1OC (stereo not drawn)	?
CC(C)(C)COS(=O)OCC(C)(C)C	0%[11.4 µM]
Cc1ccc2nc(C(O)C(O)c3nc4ccc(C)cc4[nH]3)[nH]c2c1 (stereo not drawn)	-3%
CCn1c2ccccc2c2nc3cc(S(=O)(=O)N4CCOCC4)ccc3nc21	16µM*
CCOc1cc(S(=O)(=O)N2CCN(c3ccc(F)cc3)CC2)c(OCC)cc1-n1cnnn1	17%
CC1Cc2ccccc2N1C(=O)Cn1c(=O)oc2cc(S(=O)(=O)NC3CCCC3)ccc21 (stereo not drawn)	1%
CN(CC(=O)NC1CCCCCCC1)S(=O)(=O)c1cccc2cccnc12	6%
CC(Sc1nnc(Cn2c(=O)sc3ccccc32)n1C)c1ccccc1 (stereo not drawn)	-14%
CCOc1ccccc1C(=O)Nc1ccc(-c2nnc(-c3ccc(C)cc3)o2)cc1	8%
CCOc1ccc(N2C(=O)CC(n3nc(C)cc3C)C2=O)cc1 (stereo not drawn)	-1%
CCN(C(=O)CCS(=O)(=O)c1ccc(Br)cc1)c1ccc2c(c1)OCO2	-6%
COc1ccc(-n2c(SCCC(=O)O)nnc2-c2ccncc2)cc1	6%
Cc1cccc(OCC(=O)Nc2ccc(N3CCCC3)cc2)c1C	-12%
O=C1CCN=C(Nc2ccc(F)cc2)N1Cc1ccccc1	-3%
Brc1ccc(-c2nnc3n2-c2ccccc2CC3)cc1	-2%
COC(=O)c1ccsc1NC(=O)CSc1nnnn1Cc1ccccc1	9%
Cc1ccc2c(c1)c(-c1ccccc1)nc1nncn12	-1%

Molecules shown so far that contain a tert-butyl group, in the order listed:
SMILES	HSD17B inhib
CC(C)(C)NC(=O)C1CC(=O)OC1(C)C (stereo not drawn)	8%
CCOC(=O)c1ccccc1NC(=O)Cn1cnc2c(cnn2C(C)(C)C)c1=O	1%
CC(C)(C)COS(=O)OCC(C)(C)C	0%[11.4 µM]

Carrying on.
SMILES	HSD17B inhib
CC(=O)Nc1ccc(N2C(=O)CSC2c2ccc(F)cc2)cc1 (stereo not drawn)	-10%
COc1ccc(-c2nn3c(-c4ccccc4)nnc3s2)cc1OC	?
CCn1c(-c2ccsc2)nc2c1c(=O)[nH]c(=O)n2Cc1ccccc1	?
CCc1cccc(OCC(=O)Nc2ccc(S(=O)(=O)Nc3onc(C)c3C)cc2)c1	-5%
OCCNc1ncnc2c1ncn2[C@@H]1O[C@@H](CO)[C@H](O)[C@@H]1O	3%[11.4 µM]
CCN(CC)CC(O)COc1ccccc1C(=O)CCc1ccccc1 (stereo not drawn)	-1%
COc1ccc(C)cc1-n1nnnc1SCC(=O)c1cc(C)n(Cc2ccco2)c1C	-5%
COc1ccccc1NC(=O)CN1CCN(CC(=O)Nc2cc(NC(C)=O)ccc2OC)CC1	-3%
CCOc1ccc(CNC(=O)C2CCN(S(=O)(=O)CC)CC2)cc1OC	4%
CCN(CC)C(=O)CSc1nnc(-c2ccco2)n1Cc1ccco1	-11%
Cc1ccc(-n2c(C)nc3c(cnn3-c3ccc(F)cc3)c2=O)cc1C	-4%
O=C(c1cccc(F)c1)N1CCC2(CCN(Cc3ccncc3)CC2)CC1	-1%
O=C(NCCCN1CCOCC1)c1csc2c1CCCC2	0%
O=C(NCc1cccnc1)C1CC(c2ccc(F)cc2)=NO1 (stereo not drawn)	-4%
COc1ccc(CC(=O)Nc2ccc(-c3nc4cc(C)ccc4o3)c(O)c2)cc1OC	25µM*
CCOC(=O)C(C)Oc1cccc2c(=O)n(CC(=O)NCc3ccco3)ccc12 (stereo not drawn)	-6%
Cc1ccccc1OCC(=O)Nc1ccc(N2CCN(S(C)(=O)=O)CC2)cc1	3%
Cc1n[nH]c(=O)nc1NCCN(C)C	4%
Cn1c(C(=O)NCCCN2CCCCC2)cc2sccc21	5%
Fc1ccc(CSc2nc3ncccc3[nH]2)cc1	-12%

Reprinted from the part before: 2 entries; new compounds follow.
SMILES	HSD17B inhib
Cn1c(C(=O)NCCCN2CCCCC2)cc2sccc21	5%
Fc1ccc(CSc2nc3ncccc3[nH]2)cc1	-12%
COc1cc2c(cc1OC)C(CCN)=NCC2	?
Cc1ccc(C(=O)Nc2ccc3c(c2)OCO3)o1	-11%
Cc1nc(N2CCN(C(c3ccccc3)c3ccccc3)CC2)nc2c1C(=O)CCC2	4%
CCN(CC)CCn1c2ccccc2c2cnc(N=CN(C)C)c(C#N)c21	?
C=C1C(=O)C23C(O)C1CCC2[C@]12COC3(O)C(O)C1C(C)(C)CC[C@H]2O (stereo partly drawn)	?
S=c1nc(-c2ccccc2)n(CCCN2CCOCC2)c2c1CCCC2	-9%
COC(=O)Nc1ccc(S(=O)(=O)Nc2ccccc2F)cc1	-3%
OC[C@H]1O[C@@H](n2cnc3c(NCc4ccco4)ncnc32)[C@H](O)[C@@H]1O	-6%
COC(=O)c1nc2n(n1)C(c1ccc(OC)c(OC)c1OC)C1=C(CCCC1=O)N2 (stereo not drawn)	6%
CC(CCc1ccccc1)NC(=O)C1CCN(C(=O)c2sccc2-n2cccc2)CC1 (stereo not drawn)	0%
O=C(Cn1cc2c(n1)CCCC2)NCCc1ccccc1	4%
N#CCCN(Cc1cccnc1)C(=O)Nc1ccc(Cl)c(Cl)c1	3%
O=C1NCCN1C(=O)c1ccco1	6%
COc1ccc(N2CCn3c2nc2c3c(=O)n(CCN3CCOCC3)c(=O)n2C)cc1	3%
C=CCN(CC=C)S(=O)(=O)c1ccc(F)cc1	0%
COc1cc(NC(=O)c2ccc(S(=O)(=O)N(C)C)cc2)cc(OC)c1OC	3%
O=S(=O)(Nc1ccc2c(c1)OCCO2)c1ccc(Br)s1	4%
CC(C)SC(=N)N	3%
Cc1cc(C)n2c(SCC(=O)N(C)C3CCS(=O)(=O)C3)nnc2n1 (stereo not drawn)	-20%
COc1ccc(S(=O)(=O)N(C)CC(=O)Nc2ccccc2C(F)(F)F)cc1OC	-20%
Cc1ccccc1Nc1nc(N)nc(CSCc2c(C)noc2C)n1	5%
COc1ccc2cc(C3(C)NC(=O)NC3=O)ccc2c1 (stereo not drawn)	0%
Cc1cc(C(=O)OCC(=O)Nc2ccc(S(=O)(=O)N3CCOCC3)cc2)c(C)o1	5%
Clc1ccc(Br)cc1-c1nc(-c2cccnc2)no1	8%
CCOc1cc(S(=O)(=O)NCCc2ccccc2C)c(OCC)cc1-n1cnnn1	16µM*
CO[C@H]1COC(=O)C/C=C\[C@@H](C)COC(=O)[C@@H](CCSC)NC(=O)C/C=C\[C@@H]1C	4%&1%[11.4 µM]
CCN(CC)C(=O)C1CCCN(c2ncnc3c2cnn3-c2cccc(C)c2)C1 (stereo not drawn)	-1%
CCOc1ccc(CCNC(=O)CN(C)S(=O)(=O)c2ccc3c(c2)CCC(=O)N3)cc1OCC	1%
CCc1nnc(NC(=O)c2ccc(COc3ccc(C)cc3)o2)s1	-9%
